# Mtb hypoxia inh: Mtb hypoxia fluorescent reporter inhibition; 300,000 tested, 0.1% active; AID 1159583; M. tuberculosis hypoxia-regulated fluorescent reporter, fluorescence; fluorescence inhibition, % (test concentration not listed);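 active means 35 to 45% if threefold the growth effect, above 45% if 1.5-fold the growth effect; inactive means the rest, general growth blockers included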;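 further: wells of about 50 µL received 100 nL stock; 0% = vehicle wells and 100% = reference inhibitor wells; whole bacteria with a GFP reporter of the hypoxia response; strong numbers were not always called active; many hits fall short of the cut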
# PrP 5UTR inh: inhibition of PrP 5' UTR reporter expression. AID 488862. cell-based PrP 5' UTR mRNA reporter, plate reader. inhibition, % (test concentration not listed). 340,000 tested, 0.35% active;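 active means every replicate at 50% or more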;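 further: 0 = median of the neutral control wells; tested in H4 reporter cells; numbers are from one replicate; inactives centre near -14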
# Sa ugtP lethal: growth inhibition of S. aureus ugtP deletion strain | S. aureus RN4220 ugtP deletion, OD600 growth, 16 h; some inactives read as strong as hits | growth inhibition, % (no concentration beside the values) | 330,000 tested, 0.54% active;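 active means z-score under -3 and OD600 up to 0.15 on both plates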;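 further: plate controls were untreated wells for no effect and antibiotic for full effect; wells of about 80 µL received 100 nL stock; the first replicate is given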
# BJeLR lethal: kills HRASV12-expressing BJeLR cells; BJeLR (HRASV12) viability, CellTiter-Glo ATP luminescence, 48 h; reference of the scale not given here; inhibition, % (test concentration not listed); 300,000 tested, 0.17% active; AID 1554;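 active means replicate mean above 50%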;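 further: 50 nL library stock added to about 25 µL; numbers are from one replicate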
# RN4220 kill: kills Staphylococcus aureus RN4220 | S. aureus RN4220 growth, OD600, 16 h | inhibition, % (test concentration not listed) | 330,000 tested, 0.33% active | AID 1259311;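 active means z-score of -3 or lower and OD600 up to 0.18 on both plates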;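 further: plate controls were untreated cells for no effect and reference antibiotic for full effect; stock transfer was 100 nL into about 80 µL; one replicate is shown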
# Autofluor counter: flagged as autofluorescent in microsphere protease counterscreen; compound autofluorescence counterscreen, microsphere flow cytometry; active compounds read high; fluorescence intensity (no concentration beside the values); 360,000 tested, 3.1% active;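 active means at least 3 SD above the mean of all compounds, about 16000 in these data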;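 further: 100 nL of 1 mM stock went into each well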
# Mtb hypoxia inh growth: also measured in Mtb hypoxia inh; calls as there; growth inhibition, %; measured here: M. tuberculosis growth (absorbance);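 0% = vehicle and 100% = reference antibiotic; read after six days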
# * marks the source's active call; other numbers are inactive results; / = no result given.
SMILES,Mtb hypoxia inh,Mtb hypoxia inh growth,PrP 5UTR inh,Sa ugtP lethal,BJeLR lethal,RN4220 kill,Autofluor counter
COc1ccc(CNCc2cccc3ccccc23)cc1,-15,-8,-11,1,-1,2.9,4100
Cc1ccc(O)c(N=Cc2cccs2)c1,-6,3,-29,8,4,4.1,2399
CCOc1ccc(CCNC(=O)CS(=O)Cc2nc(-c3ccc(OC)cc3)oc2C)cc1OCC (centres undefined),5,7,-22,0,6,-2.0,5862
Cc1ccc(S(=O)(=O)N/N=C/c2c[nH]c3ccccc23)cc1,/,/,-38,/,4,/,4033
COc1ccc(NC(=O)CSc2ccc3nnc(CCNC(=O)c4ccccc4)n3n2)cc1,9,9,-15,10,1,-0.2,5280
CC(/C=N/NC(=O)C(O)c1ccccc1)=C\c1ccccc1 (centres undefined),/,/,-75,/,3,/,6870
COCCNC(=S)N1CCC(NC(=O)C23CC4CC(CC(C4)C2)C3)CC1,-12,1,-10,4,-7,2.7,3780
CCNC(=O)COC(=O)CNC(=O)c1cc(Cl)cc([N+](=O)[O-])c1,8,6,-21,9,-5,1.6,9774
COc1ccc(-c2cc(C(=O)Nc3ccc(S(=O)(=O)Nc4onc(C)c4C)cc3)c3ccccc3n2)cc1,21,29,-13,17,-3,6.9,4629
CC(C)(C)c1csc(CS(=O)(=O)c2ccccn2)n1,-1,2,-8,4,-4,4.6,3451
Cc1ccc(S(=O)(=O)N2CCC(C(=O)NCCN3CCCCCC3)CC2)cc1,3,-1,-47,2,1,3.5,18618*
O=C1CC(N(CCc2ccccc2)C(=S)Nc2ccccc2)C(=O)N1c1ccc(F)cc1 (centres undefined),-1,-6,-18,-5,9,-11,3159
CC(CCc1ccco1)NC(=O)Cn1ncc2c(=O)oc3ccccc3c21 (centres undefined),2,-3,-3,-4,6,3.7,4205
Cc1nn(Cc2ccc([N+](=O)[O-])cc2)c(=O)n1-c1cccc(Cl)c1,15,9,-31,12,27,5.8,3115
COc1ccc(NC(=S)NC2CC3CCC2C3)c(OC)c1 (centres undefined),-14,-10,-19,5,0,0.9,3716
CC(C)=C1C2CC2C2C(C(=O)O)C12 (centres undefined),/,/,-13,10,2,1.4,4266
N/N=C(\Cc1cscn1)c1ccc(O)cc1O,/,/,-11,/,10,/,4581
CN(C(=O)CN1C(=O)NC2(CCc3ccccc32)C1=O)C1CCCCC1 (centres undefined),4,4,/,7,/,4.2,3934
COC(=O)C1=C(C(=O)OC)C2Nc3ccccc3[C@@]23CC(C(=O)OC)N(C(=O)COCc2ccccc2)C3=N1 (some centres undefined),0,8,/,-6,/,-1.3,/
CCN1CCN(c2ccc(Nc3ccnc4ccccc34)cc2)CC1,7,2,14,9,/,6.7,6166
COc1ccccc1C(C)NC(=O)c1ccc(C)o1 (centres undefined),/,/,-7,1,-1,4.7,4993
Cn1c(SCc2ccccc2Cl)nc2c1c(=O)[nH]c(=O)n2C,13,4,-11,11,-9,1.3,/
O=C(c1ccc2c(c1)OCCO2)N1CCN(S(=O)(=O)c2c(F)cccc2F)CC1,6,7,-26,7,/,-1.0,3797
O=C(Nc1ccccc1Cl)Nc1ccnn1C1CCN(C(=O)CCN2CCCO2)CC1,7,4,-19,8,6,-0.6,6129
O=P(COCCOCCOCP(=O)(c1ccccc1)c1ccccc1)(c1ccccc1)c1ccccc1,3,0,-8,-1,0,3.3,4887
Cc1cc(C)n2nc(C(=O)OCC(=O)c3ccccc3Cl)nc2n1,8,-1,-21,7,/,8.3,7209
O=C(Nc1cccnc1)c1cnn2cccnc12,-3,5,-16,-5,-11,-2.8,9535
CCN(CC)c1ccc(S(=O)(=O)N2CCOCC2)cc1NC(=O)COC(=O)/C=C/c1ccccc1,-10,17,/,3,/,2.7,6456
CCOC(=O)C1CCCN(CCC(=O)Nc2cc(C)ccc2C)C1 (centres undefined),-6,4,-22,1,-4,-0.1,2296
COc1ccc(C=NN(C)C2=NS(=O)(=O)c3ccccc32)cc1OC,-2,-10,/,1,/,1.6,/
COc1ccc2c(c1)c(-c1csc(N)n1)c(C)n2C,-5,-7,-12,-4,-1,3.2,3574
COc1ccc(NS(=O)(=O)c2cc(C(=O)Nc3ccccc3C(=O)O)ccc2C)cc1,4,3,-14,-1,6,5.3,/
CNC(=S)NNC(=O)c1cccs1,-10,4,-7,1,0,3.8,5600
Cc1cccc(C)c1NC(=O)COc1ccc2c(C)c(Cc3ccccc3)c(=O)oc2c1C,11,5,-6,-3,-1,7.0,2471
COc1cccc(NC(=O)N2CCCC2C(=O)Nc2cc(C)ccc2OC)c1 (centres undefined),-10,-4,-23,5,-7,4.5,3610
CCN(Cc1ccncc1)Cc1nc(-c2ccc(C(=O)OC)cc2)no1,2,10,-25,0,-5,10,2075
CCOP(=O)(C(NC(=O)c1ccccc1Cl)=C(Cl)Cl)c1ccccc1 (centres undefined),7,1,-29,-4,-1,0.4,8475
O=C1C=C(c2ccc3c(c2)OCCO3)C[C@@H](c2ccc(F)cc2)C1,0,-4,-21,-4,/,15,2870
Cc1csc2c(N3CCN(C(=S)Nc4ccc(F)cc4F)CC3)ncnc12,14,2,-15,-2,9,-3.0,5853
CC(=O)OC1CC2C(C)=CC3OC(=O)C(C)C3CC2[C@]1(C)O (some centres undefined),8,0,/,-1,/,8.1,/
COCCCNc1ncnc2sc3c(c12)CCC(C)C3 (centres undefined),7,1,-3,7,-5,22,2520
COc1cccc(/C=N/NC(=O)c2csc(-n3nc(C)cc3C(F)(F)F)n2)c1,/,/,-40,/,-6,/,7607
O=C1NC(=O)C2(COC(c3cccnc3)OC2)S1 (centres undefined),-9,-2,-31,4,8,2.9,2658
C[C@]1(C(=O)O)Cc2oncc2C[C@@H]1C(=O)O,6,9,-5,-1,0,1.4,9730
Cc1ccc(NC(=O)NNC(=O)c2sccc2-n2cccc2)cc1,/,/,-8,/,6,/,3226
COC(=O)c1c(NC(=O)CN2CCN(C(=O)c3ccco3)CC2)c2c(C)cccc2n1C,/,/,-21,-5,-1,0.9,2382
CCOC(=O)C(=CN(CCc1ccccc1)CC(=O)OC)C(=O)OCC,-1,7,-1,-4,-4,-1.4,4217
COC(=O)[C@@H](NC(=O)NC1CCCc2ccccc21)C(C)C (some centres undefined),17,12,-15,7,-4,7.4,11737
N=C1c2ccccc2CN1NC(=O)C1CC1,5,-1,-11,4,2,3.2,1997
CCn1cc(S(=O)(=O)CC(=O)N2CCc3ccccc32)c2ccccc21,5,11,-5,-6,4,-9.9,5634

# Next compounds follow.
SMILES,Mtb hypoxia inh,Mtb hypoxia inh growth,PrP 5UTR inh,Sa ugtP lethal,BJeLR lethal,RN4220 kill,Autofluor counter
CC(=NCc1ccc2c(c1)OCO2)c1c(O)n(C)c(=O)n(C)c1=O,1,5,-24,-2,5,3.7,5323
CCOC(=O)C1CCN(C(=O)COC(=O)c2ccc3c(c2)C(=O)N(c2ccc(OCC)cc2)C3=O)CC1,0,-4,-14,10,8,2.2,4552
Cc1cccc(C)c1OCC(=O)NN=Cc1cccnc1,1,-11,/,6,/,3.1,/
Cc1c(C)n(CCc2ccccc2)c2ncnc(NCCCN(C)C)c12,8,0,/,3,5,0.3,3834
CC(C)CCNC(=O)CN(CCCN1CCOCC1)C(=O)Cn1nnc(-c2ccc(F)cc2)n1,7,5,-26,5,2,5.7,22173*
CN1CCN(c2nccc3c2ncn3C)CC1,/,/,-22,11,1,2.9,2833
CC(C)(C)c1ccc(NC(=O)Nc2ccc3ccccc3n2)cc1,-8,-6,-40,-4,-10,-0.1,4028
COC(=O)N/N=C/c1ccccc1,/,/,-30,/,4,/,4339
CCC(C)=NNc1nc2c(c(=O)[nH]c(=O)n2C)n1CCc1ccccc1,3,0,/,-1,/,3.1,/
Cc1ccc(CN2CCC(n3nccc3NC(=O)C3CCOC3)CC2)cc1 (centres undefined),4,5,-12,1,1,1.2,5573
CCCCN(C(=O)CSCC(=O)Nc1ccc(OC)cc1)c1c(N)n(CC(C)C)c(=O)[nH]c1=O,-4,13,-2,3,/,3.7,/
COC(=O)c1nnc(-c2ccccc2)c(-c2ccccc2)n1,-2,6,-9,4,-3,0.8,9779
Cc1ccc(S(=O)(=O)n2nc(OC(=O)c3ccccc3F)cc2N)cc1,7,2,-31,4,6,4.6,5536
Cc1ccc(Oc2ccc(S(=O)(=O)N3CCOCC3)cc2C(N)=O)cc1C,12,0,-13,6,-10,-3.7,4067
CCn1c(SCC(=O)NN=CC=Cc2ccco2)nc2ccccc21,7,6,/,-10,/,3.4,/
COc1ccc(CCNC(=O)c2c[nH]c3ccccc3c2=O)cc1OC,6,12,-6,1,-14,5.3,10241
COc1ccc(OC)c(NS(=O)(=O)c2c(C)nc3sccn3c2=O)c1,4,4,-34,14,-5,4.6,5772
COc1ccc(C=NNc2nc(-c3ccc(C)cc3)c(C#N)c(=O)[nH]2)cc1,3,-1,/,2,/,4.6,/
O=C(COc1ccc(F)cc1)OCCN1CCOCC1,/,/,6,-3,2,-0.8,4145
CC(=O)OCC(=O)[C@@]1(O)CC[C@H]2[C@@H]3CCC4=CC(=O)C=C[C@]4(C)[C@H]3C(=O)C[C@@]21C,10,10,-2,2,17,1.1,3649
Cc1ccc(NC(=O)CCC(=O)N/N=C/c2cccnc2)cc1,/,/,-14,/,-1,/,3985
CCc1cccc(CC)c1NC(=O)COC(=O)CC1c2ccccc2CCN1S(=O)(=O)c1ccc(F)cc1 (centres undefined),/,/,-1,/,4,/,2535
CCc1cc(=O)oc2cc(C)cc(OCC(=O)NC(Cc3c[nH]c4ccc(O)cc34)C(=O)O)c12 (centres undefined),/,/,-15,-7,-5,2.2,5365
Cc1ccc(C2=N/C(=C/c3cccs3)C(=O)N2Nc2ccccc2)cc1,1,-5,-22,1,-5,32,6977
CCC(Sc1nc2n[nH]c(C)c2c(=N)n1-c1cc(Cl)ccc1C)C(=O)N1CCOCC1 (centres undefined),/,/,-17,-7,4,17,4320
CCCNC(=O)Cn1cnc([N+](=O)[O-])n1,-3,0,-25,22,-8,0.1,2200
COc1cccc(N/N=C/c2cccc(Br)c2O)c1,/,/,-117,/,4,/,6099

# Entries above with an aryl methoxy group (16):
SMILES,Mtb hypoxia inh,Mtb hypoxia inh growth,PrP 5UTR inh,Sa ugtP lethal,BJeLR lethal,RN4220 kill,Autofluor counter
COc1ccc(CNCc2cccc3ccccc23)cc1,-15,-8,-11,1,-1,2.9,4100
CCOc1ccc(CCNC(=O)CS(=O)Cc2nc(-c3ccc(OC)cc3)oc2C)cc1OCC (centres undefined),5,7,-22,0,6,-2.0,5862
COc1ccc(NC(=O)CSc2ccc3nnc(CCNC(=O)c4ccccc4)n3n2)cc1,9,9,-15,10,1,-0.2,5280
COc1ccc(-c2cc(C(=O)Nc3ccc(S(=O)(=O)Nc4onc(C)c4C)cc3)c3ccccc3n2)cc1,21,29,-13,17,-3,6.9,4629
COc1ccc(NC(=S)NC2CC3CCC2C3)c(OC)c1 (centres undefined),-14,-10,-19,5,0,0.9,3716
COc1ccccc1C(C)NC(=O)c1ccc(C)o1 (centres undefined),/,/,-7,1,-1,4.7,4993
COc1ccc(C=NN(C)C2=NS(=O)(=O)c3ccccc32)cc1OC,-2,-10,/,1,/,1.6,/
COc1ccc2c(c1)c(-c1csc(N)n1)c(C)n2C,-5,-7,-12,-4,-1,3.2,3574
COc1ccc(NS(=O)(=O)c2cc(C(=O)Nc3ccccc3C(=O)O)ccc2C)cc1,4,3,-14,-1,6,5.3,/
COc1cccc(NC(=O)N2CCCC2C(=O)Nc2cc(C)ccc2OC)c1 (centres undefined),-10,-4,-23,5,-7,4.5,3610
COc1cccc(/C=N/NC(=O)c2csc(-n3nc(C)cc3C(F)(F)F)n2)c1,/,/,-40,/,-6,/,7607
CCCCN(C(=O)CSCC(=O)Nc1ccc(OC)cc1)c1c(N)n(CC(C)C)c(=O)[nH]c1=O,-4,13,-2,3,/,3.7,/
COc1ccc(CCNC(=O)c2c[nH]c3ccccc3c2=O)cc1OC,6,12,-6,1,-14,5.3,10241
COc1ccc(OC)c(NS(=O)(=O)c2c(C)nc3sccn3c2=O)c1,4,4,-34,14,-5,4.6,5772
COc1ccc(C=NNc2nc(-c3ccc(C)cc3)c(C#N)c(=O)[nH]2)cc1,3,-1,/,2,/,4.6,/
COc1cccc(N/N=C/c2cccc(Br)c2O)c1,/,/,-117,/,4,/,6099
